From PubChem
hNpr1 antagonist: antagonists of human natriuretic peptide receptor Npr1 | P16066 | HEK293 hNpr1 GloSensor cGMP, ANP-stimulated luminescence | Potency, µM (series often up to 46.3 µM), inactives show at the highest dose activity change, negative = inhibition, actives largely listed as inhibitors | 1.6% of 76,000 active | AID 1347048; active = well fitted inhibition curve with a large enough effect; inconclusive = small, poorly fitted or top-dose-only effect; inactive = no such curve, though single readings can be large or run the other way;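 further: nearly all actives have a fitted effect of over 60% in size; nearly all hits also lower the signal before the agonist is added; a reference antagonist and vehicle were the controls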
Target sequence (P16066 whole entry, looked up): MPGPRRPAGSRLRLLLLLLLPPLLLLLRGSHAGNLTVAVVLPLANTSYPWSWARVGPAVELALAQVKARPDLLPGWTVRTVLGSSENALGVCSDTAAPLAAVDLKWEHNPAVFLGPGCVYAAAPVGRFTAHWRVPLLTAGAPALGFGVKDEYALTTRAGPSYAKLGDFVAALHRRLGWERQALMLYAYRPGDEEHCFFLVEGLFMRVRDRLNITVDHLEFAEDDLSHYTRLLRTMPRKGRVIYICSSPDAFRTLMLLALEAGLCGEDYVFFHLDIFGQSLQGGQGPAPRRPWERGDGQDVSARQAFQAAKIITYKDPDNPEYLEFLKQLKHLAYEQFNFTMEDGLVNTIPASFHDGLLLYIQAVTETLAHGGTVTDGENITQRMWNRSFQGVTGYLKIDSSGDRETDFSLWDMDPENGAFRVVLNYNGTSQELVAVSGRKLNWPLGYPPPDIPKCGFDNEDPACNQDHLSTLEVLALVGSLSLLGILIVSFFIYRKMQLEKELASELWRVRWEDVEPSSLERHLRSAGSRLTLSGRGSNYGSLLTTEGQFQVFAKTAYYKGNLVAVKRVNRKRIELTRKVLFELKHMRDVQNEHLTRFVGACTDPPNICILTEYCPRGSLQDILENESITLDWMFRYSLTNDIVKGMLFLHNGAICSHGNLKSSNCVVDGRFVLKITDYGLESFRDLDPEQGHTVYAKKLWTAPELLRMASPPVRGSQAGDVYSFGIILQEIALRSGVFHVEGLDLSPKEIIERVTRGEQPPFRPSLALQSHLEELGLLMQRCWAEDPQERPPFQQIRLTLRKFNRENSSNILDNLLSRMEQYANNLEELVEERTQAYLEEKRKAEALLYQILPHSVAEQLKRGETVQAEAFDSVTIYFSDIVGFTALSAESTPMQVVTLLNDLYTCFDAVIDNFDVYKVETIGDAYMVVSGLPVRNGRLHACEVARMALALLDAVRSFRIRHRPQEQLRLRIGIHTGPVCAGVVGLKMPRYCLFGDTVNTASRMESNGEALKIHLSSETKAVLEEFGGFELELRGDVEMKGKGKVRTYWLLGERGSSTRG
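HEK293 cells stably expressing human Npr1 and cGMP GloSensor pGS-40F, loaded 2 h with 2% GloSensor reagent, given compound 30 min at room temperature. Luminescence read before and 20 min after 0.1 nM hNppA.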
An asterisk follows results filed as active; ? = inconclusive; [ ] = dose if it differs, or a comment. On the % scale 0 is the no-effect control and ±100 the full control effect; potency means the concentration at half of the fitted maximal effect.

| SMILES | hNpr1 antagonist |
| --- | --- |
| CC[C@H]1CN(S(=O)(=O)c2ccccc2)CC[C@H]1CC(=O)NC1CCCC1 | 6.0%[70.6 µM] |
| COc1cccc(S(=O)(=O)N2CCC(n3c(C)cnc3C3CC3)CC2)c1 | -21.5% |
| CCOC(=O)C1(Cc2ccccc2F)CCCN(C(=O)CN2CCOC2=O)C1 (stereo not drawn) | -0.1% |
| Cc1nonc1CC(=O)N1CCC2(CCC(=O)N(CCc3ccncc3)C2)CC1 | 2.6% |
| COc1ccc(CN2C[C@@H](CO)[C@H](c3nc(C)no3)C2)c(OC)c1 | 1.3% |
| CNc1ncccc1C(=O)N1CCCN(Cc2ccc(F)cc2)C(C(C)C)C1 (stereo not drawn) | 0.5% |
| O=C(NC1CCCCC1)N1CC(c2nnc(-c3ccncc3)o2)C2(CCOCC2)C1 (stereo not drawn) | -0.8% |
| Cc1cn2nc(C(=O)NCc3ccccc3F)cc2c(N(C)Cc2ccccc2)n1 | 14.2% |
| CC(=O)c1cc(C(=O)N2CCCC(CCc3ccccc3C)C2)[nH]n1 (stereo not drawn) | -24.9% |
| O=C(C1C2C(=O)N(CCOc3ccccc3)C[C@@]23C=C[C@@H]1O3)N1CCSCC1 (stereo partly drawn) | -0.9% |
| CC(C)CN1C(=O)COC[C@@H]1[C@H](O)c1ccc(NC(=O)c2cnccn2)cc1 | 6.3%[70.6 µM] |
| COc1nc2nc(CCc3ccccc3)n(C)c2cc1-c1cccc(NC(C)=O)c1 | 5.1%[70.6 µM] |
| Cn1ccnc1C(=O)N1C[C@@H](Oc2cccnc2)C[C@H]1C(=O)NC1CC1 | -3.5% |
| O=C(Cn1c(=O)oc2ccccc21)N1CCC(N2CC3CC(C2)[C@H]2CCCC(=O)N2C3)CC1 (stereo partly drawn) | 0.0% |
| O=C(c1cc2ccccc2[nH]1)N1CCC2(CCCCO2)CC1 | 4.6% |
| O=C1[C@H]2CN(Cc3ccc(F)c(Cl)c3)C[C@H]2C(=O)N1CCc1ccccc1 | -12.4% |
| CC(C)NC(=O)N1CCC(N2CC(OCC3CC3)C23CCCCC3)CC1 (stereo not drawn) | 2.1% |
| CC(C)(O)C#Cc1ccc(CN2CCC(CO)(CCCc3ccccc3)CC2)cc1 | -4.3% |
| COc1cc(-c2onc(C)c2C(=O)NCc2cccc(F)c2F)cc(OC)c1OC | -22.7% |
| O=C(c1ccccn1)N1CCC(c2cc(-c3ccc(F)cc3)n[nH]2)CC1 | -14.5% |
| COc1ccc2c(c1)CCN=C2C[C@H]1CN(C(=O)C(C)(C)C)CC[C@H]1CC(=O)O | -9.7%[70.6 µM] |
| Cc1noc(C)c1CC(=O)N[C@@H]1CN(c2ccccn2)C[C@H]1CN(C)C | 0.6% |
| NC(=O)[C@H](CC1CCCCC1)NC(=O)[C@@H]1CN(C(=O)c2cccnc2)CCN1C(=O)C1CCCCC1 | -2.7% |
| Cc1ccc(CN2CCC(N3CCCCCC3=O)CC2)cc1 | 8.7%[70.6 µM] |
| CC1CCN(C(=O)c2ccccc2OCC2CCCN(C(=O)c3ccncc3)C2)CC1 (stereo not drawn) | 3.0% |
| CCN(CC)C(=O)[C@@H]1C[C@H](NC(=O)c2cc(C)no2)CN1Cc1ccco1 | 5.1% |
| Cc1ccccc1C(=O)NCc1nnc2c(-c3nc(C(C)C)no3)cccn12 | 5.2% |
| Cc1nc(C)c(C(=O)NCCc2ncc(C)n2C2CCC2)s1 | -11.5% |
| NC1CCc2nn(CC(=O)NCCOc3ccccc3)c(=O)n2CC1 (stereo not drawn) | 4.2% |
| CC1CCC2(CC1)NC(=O)N(CC(=O)NC(C)(C)C)C2=O (stereo not drawn) | 0.0% |

Copied from the results shown for reference:
| SMILES | hNpr1 antagonist |
| --- | --- |
| O=C1[C@H]2CN(Cc3ccc(F)c(Cl)c3)C[C@H]2C(=O)N1CCc1ccccc1 | -12.4% |
| CC(C)NC(=O)N1CCC(N2CC(OCC3CC3)C23CCCCC3)CC1 (stereo not drawn) | 2.1% |
| CC(C)(O)C#Cc1ccc(CN2CCC(CO)(CCCc3ccccc3)CC2)cc1 | -4.3% |
| COc1cc(-c2onc(C)c2C(=O)NCc2cccc(F)c2F)cc(OC)c1OC | -22.7% |
| O=C(c1ccccn1)N1CCC(c2cc(-c3ccc(F)cc3)n[nH]2)CC1 | -14.5% |
| COc1ccc2c(c1)CCN=C2C[C@H]1CN(C(=O)C(C)(C)C)CC[C@H]1CC(=O)O | -9.7%[70.6 µM] |
| Cc1noc(C)c1CC(=O)N[C@@H]1CN(c2ccccn2)C[C@H]1CN(C)C | 0.6% |

(list continues)
| SMILES | hNpr1 antagonist |
| --- | --- |
| CN1C[C@@H](NC(=O)c2ccccc2)C[C@H]1c1nc(-c2ccc3c(c2)OCO3)no1 | -5.3%[70.6 µM] |
| O=C(c1nccc2ccccc12)N1CC(N(Cc2cccnc2)C(=O)Nc2ccccc2)C1 | -17.3% |
| Cc1ccc(CN2CC[C@@H]3[C@H]2C(=O)NC[C@H](CCC(=O)Nc2ccccc2)N3C)cc1 | 2.8%[70.6 µM] |
| O=C(c1ccc2c(c1)OCO2)N1CCC(c2n[nH]c(=O)n2Cc2ccc(F)cc2)CC1 | 6.5% |
| O=C(c1cccc(OC2CN(C3CCCCCC3)C2)c1)N1CCOCC1 | 8.5% |
| COCCN(Cc1ccccc1F)C(=O)c1cnc(Nc2ccccc2)nc1 | 4.1% |
| CC(=O)N1CCn2c(nn(-c3ccc([N+](=O)[O-])cc3)c2=O)C1 | 1.6%[70.6 µM] |
| CCCCOc1c(CNC2(CO)CCCC2)cccc1OC | 2.7% |
| Cc1onc(-c2cnn(C)c2NCc2ccc(C#N)cc2)c1C(=O)N(C)c1cccnc1 | 1.1%[70.6 µM] |
| CC(=O)Nc1ccc(NC(=O)CN2C(=O)NC(c3ccccc3Cl)C3=C2COC3=O)cc1 (stereo not drawn) | -3.5% |
| Cc1nc(C)c(C(=O)N2C[C@@H](Oc3cccnc3)C[C@H]2C(=O)NC2CC2)s1 | 0.1% |
| O=C(NC1CC1)c1ccccc1OCC1CCCN(Cc2cccc3[nH]ccc23)C1 (stereo not drawn) | -9.9% |
| NC(=O)CNC(=O)c1cc2n(n1)CC(c1ccc(Br)cc1)OC2 (stereo not drawn) | 5.6% |
| COc1cccc(-c2nc(N3CCOCC3)cc3c2CN(CC(F)(F)F)C3=O)c1OC | -0.2%[70.6 µM] |
| NC(=O)[C@H](Cc1cccs1)NC(=O)[C@@H]1C[C@@H](NS(=O)(=O)c2cccs2)CCN1C(=O)COCC(=O)O | -0.1% |
| CNC(=O)[C@@H]1CN(Cc2ccc(Cl)cc2F)C[C@H]1CO | 2.6% |
| O=C(c1csc(N2CCN(c3ccccc3)CC2)n1)N1CCCCCC1 | 10µM* |
| N#Cc1cccc(C(=O)N2CCNc3cnc(Nc4cccc(F)c4)nc3C2)c1 | 28.2µM* |
| O=C(NCc1cccc(C(F)(F)F)c1)[C@H]1CN(Cc2ccccc2)C[C@H]1C(=O)O | -19.5% |
| COCCOC1CCN(C(C(=O)O)c2ccc(OC)c(F)c2)CC1 (stereo not drawn) | 2.9% |
| O=C1CC(c2noc(-c3cc(F)cc(F)c3)n2)CN1c1ccc(F)cc1 (stereo not drawn) | 0.3% |
| COCCN1CCC(N2CCN(S(=O)(=O)Cc3ccccc3)CC2)C1=O (stereo not drawn) | 5.5% |
| Cc1cccc(S(=O)(=O)N2CCc3c(C(=O)NCCCN4CCCCC4)cccc32)c1 | 0.8% |
| O=C(NCc1cccs1)c1ccc2c(c1)OCCN(CCC(F)(F)F)C2 | ? |
| C[C@@H]1C(=O)O[C@H]2[C@H]1CC[C@@]1(C)Cc3sc(NS(=O)(=O)c4ccc(F)cc4)nc3[C@@H](C)[C@H]21 | -10.8% |
| COCc1nc(CCNC(=O)C(C)Oc2ccccc2)no1 (stereo not drawn) | -2.6% |
| CCN(CCNC(=O)CC1CCN(c2ccnc(OC)n2)CC1)Cc1ccccc1 | -15.8% |
| CCC(CC)NC(=O)c1c(OCC2CC2)cc(=O)n2c1CCCCC2 | 0.8% |
| CCCC1c2nccn2CCCN1C(=O)c1cn2ccccc2n1 (stereo not drawn) | -6.0% |
| CC(C)N1CC[C@@H]2[C@H]1C(=O)NC[C@H](CCC(=O)NCc1ccc(F)cc1)N2C | -1.6%[70.6 µM] |

Further records:
Molecule	hNpr1 antagonist
Oc1cccc(-c2cc(C[C@@H]3CC[C@H](O)[C@@H](CNC4CCC4)O3)no2)c1	?
COc1ccc(S(=O)(=O)N2CCC(c3noc(-c4cccnc4)n3)C2)cc1 (stereo not drawn)	-7.3%
CN1CCN(C[C@@H]2CN(C(=O)CCc3cn[nH]c3)C[C@@H]2CO)CC1	0.0%
CC(=O)Nc1ccc(C(=O)NC[C@@H]2C=C(C)[C@H](CC(=O)NCCN3CCOCC3)C[C@H]2C(C)C)cc1	5.6%
Cc1nn(C)c2nc(N3C[C@@H]4CCN(C)[C@@H]4C3)sc12	6.3%
Cn1cnc(C(=O)N2CC(F)(F)C[C@H]2c2nc(C3CC3)no2)c1	6.6%
CCCN1C(=O)Cc2cc(C(=O)NC(C)c3ccc(OCC)cc3)ccc21 (stereo not drawn)	?
COc1ccc(OCC2(C)COc3ccc(C(=O)N(C)CCN(C)C)cc3N2)cc1 (stereo not drawn)	-1.3%[70.6 µM]
Cc1ccccc1Cn1nc2n(c1=O)CCCCC2	-2.3%
Cc1ccc(C)c(CN2C(=O)NC3(CCN(C(=O)Cc4cccc(F)c4)CC3)C2=O)c1	?
O=C1CC2(CCN(C(=O)c3ccccc3F)CC2)Oc2cc(Cl)ccc21	-23.1%
CN(CCNC(=O)CN1CC2CC(C1)[C@H]1CCCC(=O)N1C2)C1CCCCC1 (stereo partly drawn)	0.8%
O=C(c1ccco1)N1CCCn2cc(-c3ccccc3F)nc21	-8.0%
O=C(c1csc2nc(-c3ccc(F)cc3)cn12)N1C[C@H]2CC[C@@H](C1)N2	1.0%
O=C(c1cc(Br)cn2ccnc12)N1CCCC1	4.5%[70.6 µM]
COc1c(C)cccc1C(=O)N1CCC2(CC1)CNC(C(=O)O)C2 (stereo not drawn)	-0.3%
CCc1nc2c(c(-c3ccc(Cl)cc3)n1)CCN(C(=O)c1ccc(OC)cc1)CC2	0.0%
Cc1noc([C@@H]2CN(C(=O)c3ccsc3)C[C@H]2C(N)=O)n1	4.6%
CN(CC1CCOCC1)C(=O)NC1CCCC1	-2.1%
Cc1nccn1CCN(C)c1ccc(-c2nc(COc3ccccc3)no2)cn1	?
Cc1noc(C)c1CC(=O)N1CCN(C(=O)N(C)C)[C@@H]2CS(=O)(=O)C[C@@H]21	2.7%
Cc1cccc(CN2CCN(C)C3(CCC(=O)N(CC(=O)O)CC3)C2)n1 (stereo not drawn)	0.9%
COc1cc(/C=C/CN2CC(=O)N(C(C)C)CC(OCc3noc(C)n3)C2)ccc1O (stereo not drawn)	2.9%
CC(C)c1nccn1CCCNC(=O)c1ccc(NC2CCC(O)CC2)nc1 (stereo not drawn)	4.1%
O=C1N[C@H](CCC(=O)N2CCCC2)C(=O)Nc2ccccc21	6.3%
COCCn1cnnc1C(C)NC(=O)CCc1nc(-c2ccccc2OC)no1 (stereo not drawn)	-1.1%
O=C(CCCc1nc2ccccc2[nH]1)N1CCc2c(nc3cc(-c4ccccc4)[nH]n3c2=O)C1	-6.4%
Cc1ccc(C(=O)N2CC(C(=O)NCCc3ccncc3)C3(CCOCC3)C2)cc1F (stereo not drawn)	-1.4%
CC(=O)NCC(=O)N1CCCn2cc(-c3ccccc3F)nc21	-1.4%
O=C1NCCCCCN(Cc2cccnc2)[C@@H]2CN(C(=O)NCCc3ccccc3)CC[C@@H]12	0.0%
O=C(COc1ccccc1)Nc1ccc2c(c1)CN(Cc1ccccc1F)C(=O)CO2	?
Cn1cnnc1CC1CCN(C(=O)c2ccccc2F)CC1	-7.4%
Cc1cnc(CC2CCN(C(=O)C3CC3)C2)n1C(C)C (stereo not drawn)	3.3%
COc1ccc(-c2cc(C[C@@H]3CC[C@H](O)[C@@H](CNC(=O)Nc4ccccc4OC)O3)no2)cc1	-9.1%
CC(c1cccs1)N(C)C(=O)c1ccccc1F (stereo not drawn)	-9.8%[70.6 µM]
COc1cccc(C(=O)NC(C(=O)NCC(C)C)C2CCN(C(=O)c3ccc(F)cc3)CC2)c1 (stereo not drawn)	-8.2%
O=C(NCc1ccc(Cl)cc1)c1cc2n(n1)CC(c1ccc(Cl)cc1)OC2 (stereo not drawn)	?
COC(=O)c1ccc2nc(CO[C@H]3CN(C(C)=O)C[C@H]3F)[nH]c2c1	0.4%[70.6 µM]
Cc1cc(OC2CN(Cc3ccc(C#N)cc3)C2)ccc1F	?
CC1=C[C@@H](CNC(=O)c2ccccc2)[C@H](C(C)C)C[C@H]1CC(=O)N1CCN(C)CC1	-3.2%[70.6 µM]
COc1ccc(CC2CN(C(=O)c3ccsc3)CCO2)cc1 (stereo not drawn)	1.8%
COc1ccc(/C=C/CN2CC(=O)N(c3ccccc3C#N)CC2C)cc1 (stereo not drawn)	-2.1%
COc1cccc2c1OCC(Cc1cccc(N3CCNCC3)c1)C2 (stereo not drawn)	3.1%
C#CCNC(=O)c1onc(-c2ccc(F)cc2)c1[C@H](C)O	-7.6%[70.6 µM]
O=C(N[C@@H](Cn1cc(Cl)c(=O)[nH]c1=O)C(=O)O)C1CC1	-17.1%[70.6 µM]
CN1CCC(OCCCn2ccnc2-c2ccccc2C(=O)O)CC1	-3.1%
CC(NC(=O)c1noc(-c2ccc3c(c2)OCO3)n1)c1ccccc1 (stereo not drawn)	-8.4%
CCn1nccc1C(=O)N1CCCC(c2nnnn2-c2ccccc2)C1 (stereo not drawn)	-0.2%

3 compounds from above, ordered by their value in hNpr1 antagonist, ascending.
SMILES | hNpr1 antagonist
COc1cccc(C(=O)NC(C(=O)NCC(C)C)C2CCN(C(=O)c3ccc(F)cc3)CC2)c1 (stereo not drawn) | -8.2%
Cn1cnnc1CC1CCN(C(=O)c2ccccc2F)CC1 | -7.4%
COc1ccc(/C=C/CN2CC(=O)N(c3ccccc3C#N)CC2C)cc1 (stereo not drawn) | -2.1%

This is a subset, so the mix of outcomes need not match the whole.
